Menin MLL FP FL: displaces fluorescein MLL peptide from human menin | Fluorescence polarization, fluorescein-MLL peptide displacement from menin | FP activity change, % at 61.4 µM | 290,000 tested, under 10 active | AID 1766; inconclusive = falling polarisation curve, or a change in total fluorescence; inactive = total fluorescence flat and polarisation flat or rising; no compound was filed as active; the % refers to the polarisation; negative = inhibition;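 further: % of control where 0% means no effect; inhibitors lower the polarisation; unlabelled MLL peptide was the positive control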
TRPML1 inh: blocks the human TRPML1 channel; Q9GZU1; TRPML1-inducible cells, Ca2+ dye fluorescence, FDSS; hits give low values; inhibition of EC80 agonist-evoked calcium signal; activity change, negative = inhibition, % (no concentration beside the values); actives 0.02% (n = 390,000); in the data active means activity change below about -50%; inconclusive means about -30% to -50%; inactive means above about -30%;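 further: stimulus is agonist 54-4 at its EC80 concentration; on the % scale 0 is the no-effect control and ±100 the full control effect; compound concentration not given in the record; the text of the record puts the active cut at -80%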
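Calcium fluorescence in TRPML1-DL cells induced overnight with Tet: a 110 s read after compound pin addition, then a 110 s antagonist read after challenge with 54-4 at 4 uM final (EC80).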
gsp antag: antagonists of gsp mutant (McCune-Albright syndrome). Potency, µM (titrated, usually from 76.9 µM), without a hit: top-dose activity change, negative = inhibition, actives largely listed as inhibitors. gsp-mutant cells, cAMP HTRF, 30 min; control for the full effect not named in the record. actives 0.4% (n = 340,000); active = falling curve of any shape with a large fitted effect; inconclusive = falling curve, mostly with a smaller effect; inactive = flat or rising curve; cell line not stated here;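 further: intracellular cAMP measured with PDE inhibitor Ro 20-1724 present during compound exposure; potency means the concentration at half of the fitted maximal effect; on the % scale 0 is the no-effect control and ±100 the full control effect; nearly all actives have a fitted effect of over 65% in size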
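Cells in G418 medium, seeded 16-24 h, 37C; buffer exchange to DPBS + 1 mM CaCl2, 0.5 mM MgCl2, 0.05% BSA; cpds in DMSO + […] (300 uM stock), 30 min 37C; HTRF cAMP detection.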
gsp ag: agonists of gsp mutant (McCune-Albright syndrome); gsp mutant cells, cAMP HTRF, 30 min; control for the full effect not named in the record; AID 624287; actives 0.13% (n = 340,000); Potency, µM (series often up to 76.9 µM), without a hit: top-dose activation (cAMP increase), actives largely listed as activators; active = well fitted activation curve with a large enough effect; inconclusive = small, poorly fitted or top-dose-only effect, or another doubt; inactive = no such curve, though single readings can be large or run the other way; cell line not stated here;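 further: phosphodiesterase inhibitor Ro 20-1724 added with compounds to block cAMP breakdown; potency means the concentration at half of the fitted maximal effect; nearly all actives have a fitted effect of over 60% in size; about a fifth of the inactives were tested at one dose only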
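Cells in DMEM/10% FBS with G418 were pretreated with compounds in DMSO plus […] (300 uM stock) for 30 min at 37C. cAMP was measured by HTRF (cAMP-d2 plus anti-cAMP antibody-K) after 30 min at room temperature.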
Sfp PPTase inh: inhibitors of Bacillus subtilis Sfp phosphopantetheinyl transferase | actives 3.5% (n = 310,000) | Potency, µM, for inactives: max response, negative = inhibition, hits mostly inhibitors | Q9F4F7 | Biochemical Sfp PPTase activity, qHTS; active means well fitted inhibition curve with a large enough effect; inconclusive means small, poorly fitted or top-dose-only effect, or another doubt; inactive means no such curve, though single readings can be large or run the other way;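 further: the enzyme is Sfp with the accession as filed and its product quenches rhodamine fluorescence; potency means the concentration at half of the fitted maximal effect; 0% = enzyme reaction without inhibitor and -100% = no enzyme wells; top concentration of the series not given in the record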
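Buffer: 50 mM Hepes-Na pH 7.6, 10 mM MgCl2, 0.01% Nonidet P-40, 0.01% BSA. Enzyme 15 nM, pre-exposed to compound 15 min; substrates then added and fluorescence change tracked over 30 min.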
ClpP mod: qHTS Assay for Activators of ClpP | Potency, µM (highest dose often 57.5 µM), for inactives: at the top dose activity change, negative = active | purified B. subtilis ClpP, FRET peptide cleavage, 20 min | ATP-dependent Clp protease proteolytic subunit (Bacillus subtilis (strain 168)), P80244 | actives 1.9% (n = 340,000); active = well fitted falling curve with a large enough effect; inconclusive = small, poorly fitted or top-dose-only effect; inactive = no such curve, though single readings can be large or run the other way; further: potency means the concentration at half of the fitted maximal effect; the source files actives as falling curves though it sought activators and does not explain the sign; nearly all actives have a fitted effect of over 65% in size; many hits overshoot -100%
Target sequence (P80244 whole entry, looked up): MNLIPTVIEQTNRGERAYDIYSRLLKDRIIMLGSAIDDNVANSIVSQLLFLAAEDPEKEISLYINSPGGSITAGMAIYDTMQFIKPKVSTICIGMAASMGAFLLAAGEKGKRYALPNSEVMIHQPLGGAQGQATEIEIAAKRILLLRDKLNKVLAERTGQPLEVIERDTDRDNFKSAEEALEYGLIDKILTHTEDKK
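Buffer: 100 mM Tris/HCl pH8, 100 mM KCl, 0.05% low protease BSA, 2.5% glycerol, 0.01% Tween-20. ClpP 10 microg/mL final; 20 min RT; delta FRET normalized to ADEP and DMSO controls.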
TRPV1 PAM: human TRPV1 potentiation; actives 0.02% (n = 320,000); TRPV1-expressing cells, Fluo-8 calcium influx, capsaicin EC20 potentiation; host cell line not named in the record; control for the full effect not named in the record; Q8NER1; potentiation, % at 8.33 µM; active means potentiation above 80%; inconclusive means 30% to 80%; inactive means below 30%; further: 0% is about no effect
Target sequence (Q8NER1 whole entry, looked up): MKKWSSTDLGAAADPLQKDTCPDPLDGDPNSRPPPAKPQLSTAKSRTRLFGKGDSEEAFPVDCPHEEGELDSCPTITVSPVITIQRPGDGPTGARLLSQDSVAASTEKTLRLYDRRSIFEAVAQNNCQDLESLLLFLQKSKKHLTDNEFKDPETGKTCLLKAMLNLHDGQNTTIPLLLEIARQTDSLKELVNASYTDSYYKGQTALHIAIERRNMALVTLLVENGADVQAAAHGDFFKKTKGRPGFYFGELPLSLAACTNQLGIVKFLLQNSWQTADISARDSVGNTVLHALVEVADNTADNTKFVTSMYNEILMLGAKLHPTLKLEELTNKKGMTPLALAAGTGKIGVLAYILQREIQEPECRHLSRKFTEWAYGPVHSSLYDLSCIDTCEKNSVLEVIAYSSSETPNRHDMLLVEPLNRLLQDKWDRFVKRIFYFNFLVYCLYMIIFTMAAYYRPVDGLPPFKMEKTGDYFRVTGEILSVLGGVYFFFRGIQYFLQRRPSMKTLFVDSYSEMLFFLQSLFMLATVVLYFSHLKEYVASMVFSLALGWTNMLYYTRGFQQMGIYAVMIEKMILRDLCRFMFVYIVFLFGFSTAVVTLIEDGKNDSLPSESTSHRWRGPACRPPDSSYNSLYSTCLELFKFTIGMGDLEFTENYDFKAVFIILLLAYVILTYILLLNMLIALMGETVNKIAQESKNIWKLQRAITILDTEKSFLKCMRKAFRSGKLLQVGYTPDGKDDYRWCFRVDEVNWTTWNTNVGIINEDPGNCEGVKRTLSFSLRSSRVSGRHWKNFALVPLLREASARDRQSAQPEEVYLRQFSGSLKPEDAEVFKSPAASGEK
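Cells expressing TRPV1 were dye-loaded with Fluo-8 and read kinetically: 10 s baseline, 3 min after compound (agonist portion), then 2 min after EC20 capsaicin (allosteric enhancer portion). Calcium-bound dye fluorescence at 480/520 nm.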
* hit, by the source's call; u = inconclusive; x = not tested or not shown; & = joins results of further samples; [ ] = another dose, or the depositor's remark.

SMILES | Menin MLL FP FL | TRPML1 inh | gsp antag | gsp ag | Sfp PPTase inh | ClpP mod | TRPV1 PAM
Cc1nc(N)ncc1-c1ccc2c(c1)OCO2 | 0.1 | 6 | 16% | 6%[15.4 µM] | 14% | 0.8% | -2
CCO[C@@H]1OC(C(=O)NC2CC2)=C[C@H](c2ccccc2)[C@H]1CCCO | 0.7 | 29 | 3% | u | 3% | 0.3% | -5
C=CCc1c(C)nc(SCc2nc3ccccc3c(=O)[nH]2)[nH]c1=O | 1.2 | -13 | 0% | 12% | u | 1.1% | u
COc1ccc(Cc2nc3ccc(C(=O)NC4CCOC4)cc3o2)cc1 (stereo not given) | -1.4 | 18 | 1% | 9% | 1% | -2.6% | -20
COc1ccc([N+](=O)[O-])c(OC)c1C(=O)NC(=O)Nc1nc(C)cc(C)n1 | 4.4 | -19 | -34% | -6%[15.4 µM] | 3% | 1.6% | x
O=C(C1CCN(S(=O)(=O)N2CCOCC2)CC1)N1CCN(Cc2ccccc2)CC1 | 0.4 | -3 | -5% | u | 32%[activator] | -1.1% | 4
COc1cccc(NC(=O)C2CCC2)c1 | x | 8 | 8% | x | x | 0.0% | u
CC(C)CC(c1nnnn1C(C)C)N1CCN(c2ccccc2)CC1 (stereo not given) | 4.3 | 10 | -1% | 26% | 22% | -0.4% | 3
Cc1nc2ccccn2c1C(=O)N/N=C/c1cc(C)n(-c2ccc(Br)cc2)c1C | -0.1 | 10 | 3% | 0% | -11% | -27% | 17
CCC(=O)Nc1ccccc1N1CCN(S(C)(=O)=O)CC1 | -1.9 | -2 | -7% | u | 11% | -1.4% | -8
Cc1c(C(=O)Nc2ccc(C(F)(F)F)cc2)sc2ncn(CC(=O)N3CCN(c4ccccn4)CC3)c(=O)c12 | x | -11 | -15% | 21% | -5% | 16% | 25
CCOC(=O)CSc1ncnc2c1c(-c1ccccc1)cn2-c1ccc(OC)cc1 | 1.0 | -10&15 | -8% | -22% | 1% | u | 1
O=C(O)CCCN1C(=O)/C(=C/c2ccncc2)SC1=S | 7.0 | -1 | -25% | -4%[15.4 µM] | 10% | x | 15
CCCNC(=O)c1ccc(N2CCC3(CC2)CC(c2cccc(Br)c2)=NO3)c(NC(=O)c2ccc(Br)cc2)c1 | x | 7 | -3% | x | x | u | 28
Cc1cc(=O)n2nc(N3CCC(C(=O)NCc4ccccc4)CC3)sc2n1 | x | -11&-4 | 1% | 20% | 11% | -0.5%&-1.7% | -6
CCOC(=O)c1c(N)c2cc([N+](=O)[O-])ccc2n1C | -0.3 | -5 | -13% | 26% | 10% | 1.5% | 0
CC(C)(C)C(=O)N1CCC(O)(CS(=O)(=O)Cc2ccc(Cl)cc2)CC1 | 3.2 | 30 | -7% | -28% | 29% | -2.0% | -9
O=C1/C(=C/c2cccnc2)SC(=S)N1Cc1ccco1 | x | -4 | 35µM* | -22% | x | -5.2% | x
CSCCC(NC(=O)C1CCC(C)CC1)C(=O)O (stereo not given) | 3.5 | 11 | 6% | 16% | -3% | 0.1% | -8
CCOc1cc(/C=N/NC(=O)c2ccc(CSc3nncn3C)cc2)ccc1OCC(=O)N1CCOCC1 | -4.4 | -6 | 1% | -17% | 15% | -1.0% | -1
Clc1nc2ccccc2cc1-c1nnn(-c2ccccc2)n1 | -0.7 | -24 | -1% | 27% | 5% | 75% | 0
COc1ccc(C(=O)NCCCn2cccn2)cc1OC1CCN(C(C)=O)CC1 | -0.1 | 0 | 8% | -27% | 5% | 0.6% | 4
CC(C)(C)N(C=C(Cl)Cl)C(=O)NC1CCCCC1 | -0.3 | 5 | 17% | 9% | 22% | 67% | -20
CCOc1ccc(-c2c(C(=O)N/N=C(\C)c3ccccc3OC)nnn2-c2nonc2N)cc1 | -3.3 | -12 | u | -25% | 3% | -9.9% | 3
c1ccc2c(c1)NC1(CCCCCC1)n1c-2nc2ccccc21 | -0.1 | -8 | 3% | 2% | -9% | 63% | 1
O=C(CNC(=O)c1ccccc1Cl)Nc1ccncc1 | x | -11 | 4% | -17% | x | -1.9% | -11
Cc1sc2c(c1C)C(=O)NC(c1cccc(O)c1)N2 (stereo not given) | 3.9 | x | x | x | 40µM* | x | 0
CC1CCCN(C(=O)c2ccccc2OC2CCN(S(C)(=O)=O)CC2)C1 (stereo not given) | -0.8 | 56 | 6% | -3%[15.4 µM] | 11% | -2.6% | -6
Cc1cccc(OCC(=O)NCc2ccc(F)cc2)c1 | 0.3 | -8 | 4% | u | 14% | -2.0% | -15
CCc1ccc(-c2cc(C)no2)cc1S(=O)(=O)N1CCN(c2ccccc2OC)CC1 | 6.3 | 8 | -9% | 2% | 7% | -4.5% | -17
C=C(C)CNC(=S)N/N=C/C1=CCC2CC1C2(C)C (stereo not given) | 4.7 | 47 | -13% | 1% | 11% | 1.1% | -9
CC(=O)Nc1ccc(S(=O)(=O)NCc2nnnn2-c2ccc(F)cc2)cc1 | x | 11 | 10% | 2% | x | -16% | 20
CCOc1cc(/C=C2\C(=N)N3N=C(S(C)(=O)=O)SC3=NC2=O)ccc1OCCOc1cccc(OC)c1 | -1.3 | -3 | u | 7% | -14% | x | 13
CCN(c1cccc(C)c1)S(=O)(=O)c1cc2c3c(c1)CCN3C(=O)CC2 | x | 18 | -5% | -6%[15.4 µM] | x | -1.1% | -10
Cn1cccc1-c1nc2ccc(NC(=O)c3ccccc3)cc2[nH]1 | -1.6 | -2 | -30% | 1% | 2% | 0.2% | -1
Cc1ccc(Cl)cc1-n1c(=O)cc(N2CCN(C(=O)c3ccco3)CC2)[nH]c1=O | 3.5 | 52 | 9% | 10% | -12% | 1.6% | -25
CNC(=O)C1CC(=O)N(CCCc2ccccc2)C(=Nc2ccccc2)S1 (stereo not given) | 0.7 | 0 | -16% | -3% | 1% | -4.4% | 13
C=CCN(c1ccccc1)S(=O)(=O)c1cccc(C(=O)N2CCCC2)c1 | x | -6 | 10% | -1% | x | 1.1% | -13
CC(C)Cn1c(N)c(C(=O)COC(=O)Cc2cccc(C(F)(F)F)c2)c(=O)n(C)c1=O | x | 12 | u | -31% | x | -2.2% | 9
CCOC(=O)c1ccc(N2CCCCC2)c(NS(=O)(=O)c2ccc(C)cc2)c1 | 2.0 | 0 | -13% | 2%[15.4 µM] | -2% | x | 2
Cc1ccc(N=Cc2c(O)n(C)c(=O)n(C)c2=O)nc1 | -0.5 | -4 | -2% | 12% | -27% | -2.5% | -14
Cc1ccc(Cl)cc1NC(=O)Cn1cc2c(n1)CCCC2 | 4.1 | 4 | -2% | -5% | 18% | -1.5% | u
CC(=O)Cc1nsc(NC(=O)c2ccc(-c3cccc(Cl)c3)o2)n1 | 0.6 | 15 | -6% | -13% | u | -19% | 2
C=CCC(NCc1ccco1)c1ccc(OC)c(OC)c1 (stereo not given) | 4.1 | 11 | -4% | -24% | 10% | -2.4% | 4
O=C(c1ccccc1-c1nc2ccccc2[nH]1)N1CCCCC1 | 1.0 | 4 | 4% | 10% | 5% | 28µM* | -3
CC(=O)c1ccc(Oc2nc(-c3cccnc3)nc3ccccc23)cc1 | 2.0 | 22 | x | -4%[15.4 µM] | 3% | x | 5
Cc1cccc(OCc2nc(C)cc(=O)[nH]2)c1 | 2.9 | -4 | 2% | -1% | -10% | u | 1
CCN(C(=O)COC(=O)c1cc(C)oc1C)c1c(N)n(Cc2ccccc2)c(=O)[nH]c1=O | x | 22 | 8% | -3% | x | 0.0% | -3
COc1ccc(C(CNC(=O)c2[nH]c(C)c(C(C)=O)c2C)N2CCOCC2)cc1 (stereo not given) | x | 20 | -5% | -2% | x | -0.1% | -5
CC1CCN(C(C(=O)Nc2ccc(C(C)C)cc2)c2ccc3c(c2)OCO3)CC1 (stereo not given) | 0.7 | 4 | -10% | 9% | u | 2.3% | x
COc1ccc(OC)c(C2=CC(=O)C[C@H](c3ccc(F)cc3)C2)c1 | x | -16 | x | u | x | -22% | x
COc1ccc(C[C@H]2CN3C(=NC[C@@H]3Cc3ccc(O)cc3)N2C[C@H](C)NC(=O)c2ccc(C)c(Br)c2)cc1 | 2.8 | -12 | -2% | -35%[inhibitor] | u | -4.3% | -9
Cc1ccc(C(=O)Nc2nccc(-c3cccs3)n2)cc1 | 1.6 | 3 | -3% | 21% | 18% | u | -7
NC(=O)c1nc(-c2ccccc2)c(-c2ccccc2)[nH]c1=O | x | 22 | -8% | 40%[15.4 µM] | x | -2.8% | x
CCCCn1c(N)c(N(CCC(C)C)C(=O)CN2C(=O)C3CCCCC3C2=O)c(=O)[nH]c1=O (stereo not given) | -0.2 | 5 | 0% | 0%[15.4 µM] | 18% | 0.8% | -2
COc1ccc2[nH]c3c(c2c1)CCNC3C1CC=C(C)CC1 (stereo not given) | -6.5 | 2 | 19% | 1% | -8% | -4.8% | -7
CC(=O)C1=C(O)C(=O)N(c2ccc(O)cc2)C1c1cccc(F)c1 (stereo not given) | -0.9 | 5 | 12% | 10% | 3% | -2.5% | 3
Cc1ccc(-n2c(C)cc(/C=N/Nc3ccc([N+](=O)[O-])cn3)c2C)cc1 | 4.8 | -12 | -10% | -35% | -12% | 1.5% | -11
COCCn1nnnc1CN(CCc1ccccc1)Cc1cc2ccc(C)cc2[nH]c1=O | -0.2 | 6 | -9% | -3% | -18% | -3.6% | -18
CCCc1ccc(S(=O)(=O)N/N=C(/C)c2ccc3c(c2)OCO3)cc1 | -6.3 | -2 | -1% | -18% | 4% | 2.9% | 14
O=C(NCCN1CCOCC1)c1ccc(Cl)c(Cl)c1 | 1.4 | -23 | 11% | -8% | 7% | x | -4
CC(C(N)=O)N1C(=O)c2cccc3cccc1c23 (stereo not given) | 3.2 | 12 | 10% | 9% | 6% | -3.5% | -1

High-throughput results from PubChem BioAssay.
